# rRNA inh HTS: reduced GFP signal of wild-type E. coli, primary screen, bacterial rRNA inhibitor project, GFP/RFP fluorescence, OD600, single point | E. coli WT GFP vs humanized-ribosome RFP mutants, 24 h; stronger effect = lower value; DMSO median 0, no signal -100 | actives 1.6% (n = 350,000) | AID 720706, 2013 | GFP signal change (wild-type ribosome), % (no concentration beside the values);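 active = significant combined selectivity score with lowered wild-type GFP, culture density cut under 30%, mutant RFP and density less affected; inactive = any of these conditions unmet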; also: one replicate is shown; some compounds called inactive have numbers as strong as hits
# UCH37 inh: inhibitors of human UCH37 deubiquitinase, primary screen, biochemical, Ub-AMC cleavage, fluorescence | Ubiquitin carboxyl-terminal hydrolase isozyme L5 (Homo sapiens), Q9Y5K5 | purified proteasome/UCH37 | inhibition, % (test concentration not listed) | actives 0.33% (n = 330,000);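 active = mean of two replicates above 20%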;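 also: 0% = compound-free wells with enzyme and 100% = wells lacking proteasome; stock transfer was 100 nL into about 20 µL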
# Target sequence (Q9Y5K5 whole entry, looked up): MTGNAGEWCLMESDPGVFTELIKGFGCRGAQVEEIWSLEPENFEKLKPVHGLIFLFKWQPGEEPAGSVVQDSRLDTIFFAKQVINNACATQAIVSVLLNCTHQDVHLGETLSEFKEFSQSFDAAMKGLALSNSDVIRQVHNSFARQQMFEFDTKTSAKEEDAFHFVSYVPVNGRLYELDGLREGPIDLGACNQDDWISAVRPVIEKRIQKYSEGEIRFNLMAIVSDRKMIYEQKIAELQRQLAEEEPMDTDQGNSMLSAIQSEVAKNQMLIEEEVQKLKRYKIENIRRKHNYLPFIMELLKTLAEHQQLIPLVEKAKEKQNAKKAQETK
#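 Material: human UCH37 enzyme supplied as purified proteasome complex. Measure: % inhibition of Ub-AMC cleavage fluorescence. Medium: pH 7.4 Tris-HCl (50 mM) with ovalbumin, ATP-MgCl2, DTT. Times: 30 min preincubation with enzyme, 25 min cleavage at room temperature. Detection: AMC fluorescence intensity at 355/460 nm.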
# B2AR ag: beta2AR agonists driving receptor internalization, primary screen, cell-based, FAP fluorogen, flow cytometry; Am2.2-beta2AR cells; reference of the scale not given here; response, % (no concentration beside the values); actives 0.43% (n = 340,000);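 active = response above a set limit, near 3 SD of response in nonfluorescent compounds, cut at about 42% in these data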;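 also: stock transfer was 100 nL into about 11 µL; a reference agonist was the positive control; negative values mostly stem from fluorescent compounds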
# Target sequence (P07550 whole entry, looked up): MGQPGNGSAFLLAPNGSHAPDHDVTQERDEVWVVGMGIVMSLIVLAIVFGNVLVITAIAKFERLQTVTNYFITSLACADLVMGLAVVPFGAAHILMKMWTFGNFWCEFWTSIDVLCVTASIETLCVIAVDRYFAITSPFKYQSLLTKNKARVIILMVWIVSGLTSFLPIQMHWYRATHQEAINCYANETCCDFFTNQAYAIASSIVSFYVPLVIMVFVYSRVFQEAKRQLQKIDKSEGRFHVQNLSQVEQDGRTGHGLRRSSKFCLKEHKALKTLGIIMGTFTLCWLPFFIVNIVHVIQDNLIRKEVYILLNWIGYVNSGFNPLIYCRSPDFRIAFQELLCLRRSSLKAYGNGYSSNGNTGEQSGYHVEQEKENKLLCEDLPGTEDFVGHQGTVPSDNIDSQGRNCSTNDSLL
# E coli growth: E. coli growth inhibition, primary screen, OD600 | Escherichia coli growth, 23 h; stronger effect = lower value | OD600 absorbance (test concentration not listed) | actives 0.21% (n = 330,000) | AID 1053175, 2014;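 active = OD600 absorbance below the run mean of sample wells minus 3.6 SD, in any replicate, cut at about 0.56 in these data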;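 also: stock transfer was 300 nL into about 60 µL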
# HNF4A DNA FP: change in binding of human HNF4A to DNA, primary screen, biochemical, fluorescence polarization, FITC-DNA | 1 h | AID 1224865, 2016 | activity change, % at 10 µM | Hepatocyte nuclear factor 4-alpha (Homo sapiens), P41235 | actives 0.3% (n = 360,000); in the data active = activity change above about 30%, passing the limit was not always enough;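 also: controls were the assay level and a saturating level of protein; the project sought stronger binding though the title names inhibitors; some compounds called inactive have numbers as strong as hits; positive values seem to mean higher polarization but the record does not say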
# ALR H2O2 inh: inhibitors of human ALR sulfhydryl oxidase, primary screen, biochemical, H2O2 detection, HRP-luminol luminescence, single point; inhibition, % (test concentration not listed); AID 485317, 2010; actives 3.8% (n = 290,000); FAD-linked sulfhydryl oxidase ALR (Homo sapiens), P55789; purified ALR, DTT oxidation;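 active = mean and each replicate at 75% or more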;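 also: stock transfer was 7.5 nL into about 7.5 µL; 0% = neutral wells and 100% = wells with inactivated enzyme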
# FGF22 binding: binders of human FGF22 protein, primary screen, FGF22 synaptogenesis inhibitor project, biophysical, thermal shift, single point; actives 1.5% (n = 340,000); Fibroblast growth factor 22 (Homo sapiens), Q9HCT0; recombinant FGF22 thermal shift, SYPRO orange fluorescence; percent of sucrose octasulfate shift, DMSO zero; calls only at 9.99 µM; AID 651658, 2012;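 active = melting point raised past a set limit in the mean and every replicate; three in four hits are not shown here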
# Target sequence (Q9HCT0 whole entry, looked up): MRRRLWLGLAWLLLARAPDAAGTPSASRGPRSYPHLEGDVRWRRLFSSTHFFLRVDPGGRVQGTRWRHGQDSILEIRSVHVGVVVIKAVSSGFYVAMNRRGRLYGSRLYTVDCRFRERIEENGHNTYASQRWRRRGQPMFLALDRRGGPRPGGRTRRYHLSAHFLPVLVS
# rRNA inh HTS OD600: also measured in rRNA inh HTS; calls as there; OD600 change, %; measured here: OD600 growth;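 optical density of the mix in the first replicate; 0 = DMSO median and -100 = no signal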
# rRNA inh HTS RFP: recorded beside rRNA inh HTS, whose call it bears; RFP signal change, %; measured here: RFP humanized mutant strains;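 first replicate; 0 = DMSO median and -100 = no signal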
# Active calls of the source: *; i = inactive; / = not tested or not shown.
compound,UCH37 inh,FGF22 binding,rRNA inh HTS OD600,HNF4A DNA FP,E coli growth,ALR H2O2 inh,B2AR ag,rRNA inh HTS RFP,rRNA inh HTS
Cc1ccc2cccc(OCC(=O)N3CC(C)CC(C)C3)c2n1 (stereo unspecified),-6.3,i,-12,-4.0,0.65,-37,9,-1.6,-3
Cc1csc(CN(C)C(=O)C2CCC(=O)N(CCN(C)C)C2)n1 (stereo unspecified),-0.6,i,17,2.7,0.7,-7,-6,-3.5,3
O=C(O)CCC(=O)N1N=C(c2ccccc2)CC1c1ccc(Br)cc1 (stereo unspecified),2.0,i,-24,4.2,0.62,5,7,-4.7,-24
COc1ccccc1-c1cccc([C@@H]2C[C@H]3[C@H](CON3C)CN2C(=O)C(C)(C)C)c1,/,i,-2,0.8,/,/,0,4.4,-6
O=[N+]([O-])c1ccc(NC(=S)N2CCN(c3ccccn3)CC2)cc1,3.6,i,11,-0.8,0.66,/,-3,-0.1,2
COc1ccccc1C(=O)NC(=S)Nc1cc(C(=O)O)ccc1C,3.8,i,4,1.9,0.74,-18,5,-0.5,10
O=C(c1cc([N+](=O)[O-])ccc1Cl)N1CCN(c2ccccc2)CC1,3.7,/,/,-2.6,0.68,17,-3,/,/
CC(C)[C@H]1COCCS(=O)(=O)N1Cc1ccccc1-c1cccc2c1oc1ccccc12,-0.9,i,28,-0.6,0.76,/,-11,0.7,3
Cc1c(NC(=O)C2(C)CCCCC2)c(=O)n(-c2ccccc2)n1C,3.5,/,/,4.8,0.72,1,-6,/,/
CN(C)S(=O)(=O)c1ccc(Cl)c(C(=O)OCC(=O)NC(=O)NC2CCCC2)c1,1.1,i,-10,0.6,0.7,/,-7,2.4,-10
Cc1ccc(NS(=O)(=O)c2ccc(C(=O)NCC(c3ccco3)N3CCCCC3)cc2)cc1 (stereo unspecified),3.2,i,-39,-1.1,0.68,-14,21,13,-8
COc1cccc2cc(-c3csc(NC(=O)CCC(=O)NCCCN4CCC(C)CC4)n3)c(=O)oc12,-7.4,i,-5,1.8,0.63,9,12,4.9,-11
Cn1c(-c2ccc(F)c(F)c2)cc2onc(-c3ccccc3)c2c1=O,1.8,i,1,-8.7,0.67,/,2,-3.4,-3
CCOc1ccc(-c2nnc(-c3ccncc3)o2)cc1,-5.9,/,/,2.1,0.71,/,-8,/,/
CCOC(=O)c1c(N)ssc1=S,-0.4,/,2,-5.4,0.67,68,-5,0.6,14
O=C(NCc1ccccc1Cl)c1csc([C@H]2C[C@H](O)[C@@H](CO)O2)n1,/,i,10,3.4,/,/,/,-4.1,3
Cc1cc(=O)oc2cc(NC(=O)C(C)Oc3ccccc3)ccc12 (stereo unspecified),-19,i,14,-0.8,0.69,-3,-6,0.2,-2
CCC(C)Sc1ccc([C@@H]2[C@@H]3C(=O)N(C)C(=O)[C@@H]3[C@]3(C(=O)OC)CCCCN23)cc1OC (stereo partly specified),0.8,i,5,0.6,/,0,-9,-7.5,6
C=CCn1c(SCc2c(C)noc2C)nnc1C1COc2ccccc2O1 (stereo unspecified),0.6,/,/,5.2,0.69,-24,-2,/,/
COC1CCN(Cc2cn(Cc3ccccc3)nc2-c2cc3ccccc3o2)CC1,3.7,i,-32,-2.0,0.68,/,10,28,1
CCOc1ccc(CCN2C(=S)N([C@@H](CC(C)C)CN3CCCC3CN3C(=S)NC[C@@H]3CC(C)C)C[C@@H]2Cc2ccc(O)cc2)cc1 (stereo partly specified),/,i,17,0.4,/,/,12,5.6,19
CCOc1ccc(Cn2c(=O)sc3ccccc32)cc1,1.5,i,-10,-0.8,0.67,-10,9,-14,-3
O=C(O)C1Cc2ccccc2CN1C(=O)c1ccco1 (stereo unspecified),-1.9,i,4,-1.7,0.7,1,9,3.0,7
CC(=O)Nc1cccc(C(=O)NNC(=O)c2ccc(NS(=O)(=O)c3cccs3)cc2)c1,/,i,11,1.1,/,/,/,0.8,6
Cc1ccc(NC(=O)CNc2ccc(Cl)c(Cl)c2)cc1S(=O)(=O)N(C)C,0.1,i,-52,-0.6,0.69,-2,-5,15,-40
CSc1sc(C(=O)NC(=O)NCc2cccnc2)c(C)c1-c1ccon1,4.9,i,/,1.1,0.7,-17,-9,/,/
CCCCN(C)C(=O)C(Cc1ccccc1)NS(=O)(=O)c1ccc2c(c1)c(=O)n(C)c(=O)n2C (stereo unspecified),5.7,i,-5,0.9,0.73,-4,4,0.3,-2
O=C(CN(Cc1cccs1)C(=O)CNC(=O)c1ccco1)NC1CCCCC1,2.8,/,/,-1.7,0.72,-5,-7,/,/
O=C(O)CNC(=O)C1COc2ccccc2O1 (stereo unspecified),1.2,/,/,-2.5,0.73,-3,-1,/,/
Cc1ccccc1-n1ncc2c([N+](=O)[O-])cc([N+](=O)[O-])cc21,/,/,/,1.7,/,-37,-3,/,/
C=C(C)Cn1c(N2CCCC2)nc2c1c(=O)[nH]c(=O)n2C,4.2,i,5,-1.5,0.68,/,0,-0.8,4
CCOC(=O)c1[nH]c(CSc2nnc(-c3ccncc3)n2CCOC)c(C(=O)OCC)c1C,-0.1,/,/,1.7,0.72,-2,-4,/,/
c1ccc(Cc2nn3c(-c4ccncc4)nnc3s2)cc1,1.8,/,/,1.4,0.66,-1,9,/,/
Cc1ccc(C(=O)N/C(=C/c2cccnc2)C(=O)N2CCCCCC2)cc1,-1.1,i,/,-3.4,0.71,-9,-6,/,/
CCN(CC)c1nc2c(c(=O)n(C)c(=O)n2C)n1CCCc1ccccc1,2.4,i,-30,0.8,0.66,5,-4,-5.8,-26
Cc1c(NC(=O)Nc2ccc(F)cc2)c(=O)n(-c2ccccc2)n1C,0.6,i,11,-4.6,0.66,-3,-16,-0.6,6
CCCCC(=O)N(C)c1c(C)nc2ccc(C(=O)N(C)CCN(C)C)cn12,/,i,0,-0.5,/,/,/,-2.2,5
Cc1nc(SCCCSc2n[nH]c(C)n2)n[nH]1,1.7,/,/,-2.0,0.69,0,-4,/,/
CC(C)(C)SCCNC(=O)c1ccccc1,2.8,/,/,-4.3,0.73,/,5,/,/
O=C(c1ccc(Cl)c(S(=O)(=O)N2CCCCC2)c1)N1CCN(c2ccccc2)CC1,3.7,i,/,0.8,0.73,-7,-6,/,/
Cc1csc(NC(=O)c2ccc(C)c([N+](=O)[O-])c2)n1,-1.0,/,/,-2.5,0.69,20,-14,/,/
O=C1CSC(c2ccccn2)N1c1ccc(F)cc1F (stereo unspecified),-1.4,i,12,2.4,0.67,-5,0,1.7,3
Cc1ccc(NS(=O)(=O)c2c(C)noc2C)cc1,-0.1,i,1,6.3,0.67,-11,-6,2.6,8
Cc1ccccc1CNC(=O)CCNS(=O)(=O)c1ccc(OC(F)(F)F)cc1,3.2,i,12,-0.7,0.67,1,7,0.4,3
O=C(Cc1cccc(NC(=O)C2CCCN(C(=O)C3CCCC3)C2)c1)Nc1ccc(C(=O)N2CCOCC2)cc1 (stereo unspecified),0.7,i,16,-0.7,0.68,/,-3,-1.8,5
CCOC(=O)/C(C#N)=C\c1cc(C)n(-c2ccccc2)c1C,-2.0,/,/,4.2,0.71,-4,6,/,/
Cn1ncc(Cl)c1C(=O)NC(=S)Nc1sc2c(c1C#N)CCCCC2,2.4,/,/,-2.3,0.73,-14,10,/,/
CC(C)C[C@H]1CN(CCCC[C@H]2CNC(=O)C(=O)N2CCC2CCCCC2)C(=O)C(=O)N1CCc1ccccc1,/,i,-4,2.3,/,/,/,0.6,-8
COCCn1c(SCc2ccc(Cl)cc2)nc2c1c(=O)[nH]c(=O)n2C,2.8,i,4,4.3,0.67,-21,1,2.8,12
CC1(C(=O)Nc2ccc3nc[nH]c3c2)CCN1C(=O)C1(c2ccccc2)CCCC1 (stereo unspecified),/,i,-30,2.2,/,/,/,-2.5,-3
O=C(O)c1cccc(S(=O)(=O)Nc2ccc3oc(=O)sc3c2)c1,/,/,/,-1.5,/,7,6,/,/
Cc1cccc(C(=O)O/N=C(\N)Cc2ccc([N+](=O)[O-])cc2)c1,4.9,/,/,-0.8,/,0,2,/,/
CCOc1ccc(NC(=O)c2ccc3c(c2)S(=O)(=O)N=C2CCCCCN23)cc1,/,i,18,-5.7,/,/,/,-2.0,9
CCOc1ccc(CCNC(=O)CCNS(=O)(=O)c2ccc3c(c2)CCN3C(C)=O)cc1OCC,2.1,i,6,-3.8,0.72,1,-6,1.2,7
COc1ccc(NC(=O)c2ccc(S(=O)(=O)N(C)C)cc2)cc1,2.6,i,-12,-2.5,0.63,-9,-3,-5.9,-13
O=C(CCCc1c[nH]c2ccccc12)N1CCOCC1,1.4,/,/,-0.4,0.72,46,10,/,/
Cc1cccc(NS(=O)(=O)c2ccc(C)c(C(=O)NCC(c3cccs3)N3CCOCC3)c2)c1 (stereo unspecified),0.7,i,-35,-0.5,0.72,/,-1,-1.5,-18
COc1ccc(/C=N/NC(=O)c2ccc3nc[nH]c3c2)cc1,/,i,3,2.1,/,-11,5,-5.3,17
COc1cc2nc(CN3CCN(S(=O)(=O)c4ccc(Cl)cc4)CC3)[nH]c(=O)c2cc1OC,0.3,/,0,1.4,0.68,-36,7,0.4,-5
COC(=O)c1cc2occc2n1Cc1nc(-c2ccccc2Cl)oc1C,5.0,i,2,-1.1,0.72,/,-5,-0.9,11

# (further entries)
compound,UCH37 inh,FGF22 binding,rRNA inh HTS OD600,HNF4A DNA FP,E coli growth,ALR H2O2 inh,B2AR ag,rRNA inh HTS RFP,rRNA inh HTS
CCOC(=O)N1CCC(NC(=O)c2cc(C(=O)Nc3ccc(OC)c(OC)c3)ccc2CO)CC1,4.8,/,/,-0.3,0.76,0,6,/,/
C#CCCOC(=O)N1C2=NC(C(=O)OC)=C(C(=O)OC)[C@@H]3N(C)c4ccccc4[C@]23C[C@H]1C(=O)OC,-0.6,i,0,1.4,/,-6,2,3.0,1
CC(=O)C1=C(C)Nc2ncnn2C1c1ccc(O)cc1 (stereo unspecified),2.4,i,11,0.0,0.67,12,16,-1.8,8
O=C(NCCC1CCCCN1S(=O)(=O)c1ccccc1)C(=O)Nc1ccccc1F (stereo unspecified),3.3,i,6,-1.1,0.7,/,1,1.6,5
NC(=O)C1CN(S(=O)(=O)c2ccc(Cl)cc2F)c2ccccc2O1 (stereo unspecified),/,i,-13,2.3,/,-3,3,5.0,-6
Cn1cnnc1SCC(=O)c1c[nH]c2ccccc12,1.7,i,11,-1.2,0.7,-18,-3,-2.1,13

# Three compounds out of the list above, ordered by the number in UCH37 inh, largest number first:
Molecule,UCH37 inh,rRNA inh HTS OD600,ALR H2O2 inh,B2AR ag,rRNA inh HTS RFP,rRNA inh HTS
CCOC(=O)N1CCC(NC(=O)c2cc(C(=O)Nc3ccc(OC)c(OC)c3)ccc2CO)CC1,4.8,/,0,6,/,/
CC(=O)C1=C(C)Nc2ncnn2C1c1ccc(O)cc1 (stereo unspecified),2.4,11,12,16,-1.8,8
Cn1cnnc1SCC(=O)c1c[nH]c2ccccc12,1.7,11,-18,-3,-2.1,13

# Not all compounds are listed. The share of hits here may be higher or lower than overall.
